# Vaccinia stage = Vaccinia orthopox stage-specific inhibition | Vaccinia-infected cells, mCherry/Venus stage reporter fluorescence; active compounds read low; some inactives read as strong as hits | activity change (mCherry), % (no concentration beside the values) | 89,000 tested, 0.01% active | AID 1053133;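 active = mCherry past -33% and 40 or more points under the early reporter, replicates agreeing; inconclusive = past -33% without that gap or agreement; tested in A549 cells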;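 also: scaled between vehicle wells and reference inhibitor wells; 23 nL library stock went into each well; one replicate is shown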
# Vaccinia stage Venus = further read-out of Vaccinia stage, marked with its call; activity change (Venus), %; measured here: Venus reporter, other viral stage;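 negative = less Venus signal; first of two replicates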
# Starred values were filed as active, the others as inactive; ? = inconclusive; . = not tested or not shown.
(1) C[C@@H]1CN([C@H](C)CO)C(=O)c2cc(NC(=O)Cn3cnnn3)ccc2O[C@@H]1CN(C)S(=O)(=O)c1cn(C)cn1
(2) C[C@H](CO)N1C[C@H](C)[C@@H](CN(C)C)Oc2cc(C#Cc3cccnc3)ccc2S1(=O)=O
(3) O=C(C[C@@H]1C[C@H]2c3cc(NC(=O)NC4CCCC4)ccc3O[C@H]2[C@@H](CO)O1)NCc1ccc(Cl)cc1
(4) CCCNC(=O)Nc1ccc2c(c1)OC[C@H](C)N(Cc1ccccn1)C[C@H](C)[C@H](OC)CN(C)C2=O
(5) C[C@H](CO)N1C[C@H](C)[C@@H](CN(C)Cc2ccc(Oc3ccccc3)cc2)Oc2c(NC(=O)CCCCCC(=O)Nc3ccccc3N)cccc2C1=O

compound no.,1,2,3,4,5
Vaccinia stage,1,7,0,-2,-19
Vaccinia stage Venus,2,5,-1,-1,-10

(6) C[C@@H]1CN([C@@H](C)CO)C(=O)c2cc(C#CC3CCCCC3)cnc2O[C@H]1CN(C)C(=O)Cc1ccccn1
(7) COc1ccc(NC(=O)Nc2ccc3c(c2)C(=O)N([C@H](C)CO)C[C@H](C)[C@H](CN(C)S(C)(=O)=O)OCCCC[C@@H](C)O3)cc1
(8) COCC(=O)Nc1ccc2c(c1)OC[C@@H](C)N(Cc1cccnc1)C[C@@H](C)[C@H](OC)CN(C)C2=O
(9) COc1ccccc1-c1ccc([C@H]2[C@@H](C#N)N(C(=O)C3CCC3)[C@@H]2CO)cc1
(10) Cc1ccc(S(=O)(=O)Nc2ccc3c(c2)C(=O)N([C@H](C)CO)C[C@H](C)[C@@H](CN(C)Cc2ccc(C(F)(F)F)cc2)OCCCC[C@@H](C)O3)cc1

compound no.,6,7,8,9,10
Vaccinia stage,-17,13,9,-13,?
Vaccinia stage Venus,-17,-1,9,-3,.

(11) C[C@@H]1CN([C@@H](C)CO)S(=O)(=O)c2ccc(Br)cc2O[C@H]1CN(C)Cc1cccc(F)c1
(12) COc1ccc(CN(C)C[C@H]2OCCCC[C@@H](C)Oc3ccc(NC(=O)Nc4cccc5ccccc45)cc3C(=O)N([C@@H](C)CO)C[C@H]2C)cc1
(13) C[C@H]1CN([C@@H](C)CO)C(=O)c2cc(C3=CCCC3)cnc2O[C@@H]1CN(C)C(=O)c1ccc2c(c1)OCO2
(14) COc1ccc2c3c([nH]c2c1)[C@H](CO)N(Cc1ccccc1)CC31CN(C(=O)NC(C)C)C1
(15) CC(C)CC#Cc1ccc2c(c1)O[C@@H](CN(C)C(=O)Nc1ccccc1F)[C@@H](C)CN([C@H](C)CO)S2(=O)=O

compound no.,11,12,13,14,15
Vaccinia stage,?,?,-18,18,?
Vaccinia stage Venus,.,.,-16,16,.

(16) Cc1cc(C(=O)Nc2cccc3c2O[C@H](CN(C)Cc2ccc4c(c2)OCO4)[C@H](C)CN([C@H](C)CO)C3=O)n(C)n1
(17) C[C@@H]1CCCCO[C@H](CN(C)C(=O)Nc2ccc(F)cc2)[C@@H](C)CN([C@H](C)CO)C(=O)c2cc(NC(=O)Nc3ccc(C(F)(F)F)cc3)ccc2O1
(18) C[C@@H]1C=C(C(=O)NCc2nc3ccccc3[nH]2)O[C@H](OCc2ccc(CO)cc2)C1
(19) C[C@H](CO)N1C[C@H](C)[C@H](CN(C)C(=O)NC2CCCCC2)OCCCC[C@H](C)Oc2ccc(NS(=O)(=O)c3cn(C)cn3)cc2C1=O
(20) C[C@H](CO)N1C[C@H](C)[C@H](CN(C)Cc2ccc(C(F)(F)F)cc2)OCCCC[C@H](C)Oc2ccc(N(C)C)cc2C1=O

compound no.,16,17,18,19,20
Vaccinia stage,9,10,5,0,?
Vaccinia stage Venus,4,6,4,0,.

(21) CN1C(=O)c2cc(NC(=O)C3CCCC3)ccc2OC[C@@H]2O[C@H](CC(=O)NCC(F)(F)F)CC[C@H]21
(22) CC(C)CC#Cc1cnc2c(c1)C(=O)N([C@H](C)CO)C[C@H](C)[C@@H](CN(C)C(=O)c1cnccn1)O2
(23) C[C@H]1CN([C@@H](C)CO)C(=O)c2cc(C#CC3(O)CCCC3)cnc2O[C@H]1CN(C)Cc1ccncc1
(24) O=C(NCC[C@@H]1CC[C@H](NS(=O)(=O)c2ccccc2)[C@@H](CO)O1)c1cc(Cl)cc(Cl)c1
(25) COc1ccc2c3c(n(C)c2c1)[C@@H](CO)N(C)CC31CN(C(=O)c2cccnc2)C1

compound no.,21,22,23,24,25
Vaccinia stage,5,12,38,-18,-10
Vaccinia stage Venus,3,-7,15,-13,-15

# Quoted from the listing:
# entry 7 in Vaccinia stage Venus is entered as -1
# entry 18 in Vaccinia stage Venus is entered as 4
# entry 16 in Vaccinia stage Venus is entered as 4

# Later entries.
(26) C[C@@H]1CN([C@@H](C)CO)C(=O)Cc2cc(NC(=O)Cc3ccccc3)ccc2O[C@H]1CN(C)S(=O)(=O)c1ccc(F)cc1
(27) CS(=O)(=O)Nc1ccc2c(c1)[C@@H]1C[C@H](CC(=O)N3CCOCC3)O[C@H](CO)[C@@H]1O2
(28) C[C@@H]1CN([C@@H](C)CO)C(=O)CCCn2nncc2CO[C@@H]1CN(C)CC1CCCCC1
(29) O=C(C[C@@H]1C=C[C@H](NC(=O)c2ccc3c(c2)OCO3)[C@H](CO)O1)NC1Cc2ccccc2C1
(30) COc1ccc(NC(=O)Nc2ccc3c(c2)C(=O)N([C@H](C)CO)C[C@@H](C)[C@H](CN(C)C(=O)Nc2ccc(F)cc2)OCCCC[C@@H](C)O3)cc1

compound no.,26,27,28,29,30
Vaccinia stage,-3,6,19,7,-27
Vaccinia stage Venus,-5,-1,7,6,-22

(31) C[C@@H]1CN([C@H](C)CO)C(=O)c2cc(NS(=O)(=O)c3ccccc3)ccc2O[C@H]1CN(C)C(=O)Nc1ccccc1
(32) O=C(Cc1cccnc1)N1CC2(C1)[C@@H](c1ccccc1)[C@@H](CO)N2C(=O)C1CCCCC1
(33) C[C@H]1CN([C@@H](C)CO)C(=O)c2cc(/C=C/c3ccccc3)cnc2O[C@H]1CN(C)S(=O)(=O)c1cn(C)cn1
(34) COc1ccc2c3c(n(C)c2c1)[C@@H](CO)N(C(=O)C1CCC1)CC31CN(C(=O)Nc2cccc(F)c2)C1
(35) Cc1noc(C)c1NC(=O)Nc1cccc2c1O[C@H](CN(C)Cc1ccc(Oc3ccccc3)cc1)[C@H](C)CN([C@@H](C)CO)C2=O

compound no.,31,32,33,34,35
Vaccinia stage,16,5,9,-25,-24
Vaccinia stage Venus,17,2,-5,-33,-24

(36) Cc1noc(C)c1NC(=O)N(C)C[C@H]1Oc2ccc(NS(=O)(=O)c3ccc(Cl)cc3)cc2CC(=O)N([C@@H](C)CO)C[C@H]1C
(37) COc1ccc(S(=O)(=O)Nc2ccc3c(c2)C(=O)N([C@H](C)CO)C[C@@H](C)[C@@H](CN(C)S(C)(=O)=O)OCCCC[C@@H](C)O3)cc1
(38) COc1ccc(S(=O)(=O)N(C)C[C@H]2Oc3ccc(NS(=O)(=O)c4cccs4)cc3C(=O)N([C@@H](C)CO)C[C@@H]2C)cc1
(39) CCC(=O)N1[C@H](CO)[C@@H](c2ccccc2)C12CN(Cc1cc(F)ccc1F)C2
(40) C[C@@H]1CCCCO[C@H](CN(C)Cc2ccc3c(c2)OCO3)[C@H](C)CN([C@@H](C)CO)C(=O)c2cc(NC(=O)Nc3ccc4c(c3)OCO4)ccc2O1

compound no.,36,37,38,39,40
Vaccinia stage,17,0,3,-13,?
Vaccinia stage Venus,12,-4,15,-9,.

(41) C[C@@H]1CN([C@H](C)CO)C(=O)CCCn2nncc2CO[C@@H]1CN(C)Cc1ccccc1C(F)(F)F
(42) Cc1ccc(S(=O)(=O)Nc2ccc3c(c2)CC(=O)N([C@H](C)CO)C[C@@H](C)[C@H](CN(C)C(=O)Nc2ccccc2)O3)cc1
(43) O=C(NCCc1ccccc1)[C@H]1N[C@H]2c3ccc(-c4ccccc4)c(=O)n3C[C@H]2[C@@H]1CO
(44) CCCC(=O)N1C[C@H]2[C@@H](c3ccccc31)[C@H](CO)N2C(=O)Nc1ccc(F)cc1
(45) COc1cccc(CN2[C@@H](CO)[C@H](c3ccccc3)C23CN(C(=O)C2CC2)C3)c1

compound no.,41,42,43,44,45
Vaccinia stage,-27,4,6,-3,1
Vaccinia stage Venus,-22,5,8,-1,7

(46) COc1cccc(S(=O)(=O)N(C)C[C@@H]2OCc3ccccc3-c3c(n(C)c4ccccc34)C(=O)N([C@H](C)CO)C[C@H]2C)c1
(47) CC(C)CC#Cc1cnc2c(c1)C(=O)N([C@H](C)CO)C[C@@H](C)[C@H](CN(C)C(=O)CCN1CCCCC1)O2
(48) O=C(C[C@H]1CC[C@@H]2[C@H](COC[C@@H](O)CN2C(=O)Nc2cccc(Cl)c2)O1)NCc1ccccc1F
(49) C[C@@H]1CN([C@@H](C)CO)C(=O)c2cc(NC(=O)Nc3cccc4ccccc34)ccc2O[C@@H]1CN(C)S(=O)(=O)c1cn(C)cn1
(50) O=C(c1ccccn1)N1CC2(C1)[C@H](c1ccccc1)[C@@H](CO)N2Cc1ccccc1

compound no.,46,47,48,49,50
Vaccinia stage,?,-13,-11,34,3
Vaccinia stage Venus,.,-16,-11,15,6

(51) C[C@@H]1CN([C@@H](C)CO)C(=O)c2cc(C#Cc3cccc(F)c3)cnc2O[C@H]1CN(C)C(=O)C1CCCCC1
(52) COc1cccc(S(=O)(=O)N2CCCCN3[C@H](C2)[C@H](c2ccc(C#CC(C)C)cc2)[C@@H]3CO)c1
(53) COc1ccc(NC(=O)Nc2ccc3c(c2)CC(=O)N([C@H](C)CO)C[C@H](C)[C@@H](CN(C)Cc2ccc(Oc4ccccc4)cc2)O3)cc1
(54) CCCC(=O)Nc1ccc2c(c1)C(=O)N(C)C[C@H](OC)[C@@H](C)CN(S(=O)(=O)c1cn(C)cn1)[C@H](C)CO2
(55) CCS(=O)(=O)Nc1ccc2c(c1)C(=O)N(C)[C@@H]1CC[C@@H](CC(=O)N3CCOCC3)O[C@H]1CO2

compound no.,51,52,53,54,55
Vaccinia stage,?,-26,-12,7,15
Vaccinia stage Venus,.,-30,-1,10,12

# Reprinted at random: 3 entries already listed, in no set order.
(51) C[C@@H]1CN([C@@H](C)CO)C(=O)c2cc(C#Cc3cccc(F)c3)cnc2O[C@H]1CN(C)C(=O)C1CCCCC1
(52) COc1cccc(S(=O)(=O)N2CCCCN3[C@H](C2)[C@H](c2ccc(C#CC(C)C)cc2)[C@@H]3CO)c1
(55) CCS(=O)(=O)Nc1ccc2c(c1)C(=O)N(C)[C@@H]1CC[C@@H](CC(=O)N3CCOCC3)O[C@H]1CO2

compound no.,51,52,55
Vaccinia stage,?,-26,15
Vaccinia stage Venus,.,-30,12

# Next part.
(56) O=C(CCN1CCCCC1)N[C@H]1CC[C@@H](CCNS(=O)(=O)c2ccc(Cl)cc2)O[C@H]1CO
(57) COc1ccc(S(=O)(=O)N(C)C[C@@H]2OCCCC[C@@H](C)Oc3ccc(NC(=O)CCC(F)(F)F)cc3C(=O)N([C@H](C)CO)C[C@H]2C)cc1
(58) C[C@@H]1CN([C@@H](C)CO)S(=O)(=O)c2ccc(C3=CCCC3)cc2O[C@@H]1CN(C)C(=O)CC1CC1
(59) C[C@@H]1CN([C@H](C)CO)S(=O)(=O)c2ccc(-c3cccc(F)c3)cc2O[C@@H]1CN(C)C(=O)c1cccc(F)c1
(60) CNC[C@H]1Oc2ccc(NC(=O)c3ccncc3)cc2CC(=O)N([C@H](C)CO)C[C@@H]1C

compound no.,56,57,58,59,60
Vaccinia stage,-3,-29,10,?,9
Vaccinia stage Venus,8,-28,12,.,8

(61) COc1ccc(S(=O)(=O)N(C)C[C@H]2Oc3ccc(NC(=O)Nc4ccc(F)cc4)cc3C(=O)N([C@@H](C)CO)C[C@@H]2C)cc1
(62) Cc1noc(C)c1S(=O)(=O)Nc1ccc2c(c1)C(=O)N([C@H](C)CO)C[C@H](C)[C@@H](CN(C)S(=O)(=O)c1ccccc1)OCCCC[C@@H](C)O2
(63) C[C@@H]1CN([C@H](C)CO)C(=O)c2cc(C3=CCCCC3)cnc2O[C@H]1CN(C)C(=O)c1ccc2c(c1)OCO2
(64) Cc1noc(C)c1S(=O)(=O)Nc1cccc2c1O[C@H](CN(C)Cc1ccc(C(=O)O)cc1)[C@H](C)CN([C@H](C)CO)C2=O
(65) COc1ccccc1NC(=O)N[C@@H]1CC[C@@H](CC(=O)N2CCC(Cc3ccccc3)CC2)O[C@@H]1CO

compound no.,61,62,63,64,65
Vaccinia stage,0,10,-13,7,-27
Vaccinia stage Venus,-2,18,-8,26,-23

(66) C[C@@H]1CN([C@H](C)CO)C(=O)c2c(c3ccccc3n2C)-c2ccccc2CO[C@@H]1CN(C)C(=O)c1ccccc1
(67) CCCNC(=O)N1CC2(C1)[C@@H](c1ccccc1)[C@@H](CO)N2Cc1cccc(F)c1
(68) Cc1ccc(S(=O)(=O)N(C)C[C@@H]2Oc3c(NC(=O)c4cnccn4)cccc3C(=O)N([C@H](C)CO)C[C@H]2C)cc1
(69) Cc1noc(C)c1S(=O)(=O)Nc1ccc2c(c1)C(=O)N([C@@H](C)CO)C[C@@H](C)[C@@H](CN(C)C(=O)Nc1ccc3c(c1)OCO3)OCCCC[C@@H](C)O2
(70) CC(C)NC(=O)N(C)C[C@@H]1OCCCC[C@@H](C)Oc2ccc(NC(=O)Nc3ccccc3)cc2C(=O)N([C@@H](C)CO)C[C@H]1C
(71) COCC(=O)Nc1ccc2c(c1)[C@@H]1C[C@H](CC(=O)N[C@@H](C)c3ccccc3)O[C@@H](CO)[C@@H]1O2
(72) C[C@@H]1CN([C@@H](C)CO)C(=O)c2cc(NC(=O)Nc3ccccc3)ccc2O[C@@H]1CN(C)Cc1ccccc1
(73) O=C(C[C@@H]1CC[C@H](NC(=O)Nc2ccc(F)cc2)[C@H](CO)O1)NCc1cccc(F)c1

compound no.,66,67,68,69,70,71,72,73
Vaccinia stage,-8,-10,36,-8,1,5,-8,1
Vaccinia stage Venus,-9,-2,40,-6,-3,10,1,0

# A portion of the library; rates above refer to the full screens.
